UUG fidelity – modulators of start codon recognition fidelity in yeast. 0.13% of 350,000 active. activity score, % at 18.7 µM. S. cerevisiae UUG-firefly luciferase reporter, luminescence/redox ratio;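 active = replicate mean at a twofold rise or more, about +100% in these data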;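 also: firefly luciferase made from a UUG start codon reports start codon fidelity; reporter light over untreated wells divided by growth signal over untreated wells; some hits fall short of that in this replicate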
Rce1 inh – yeast Ras-converting enzyme inhibition | Q03530 | yeast membranes, quenched prenylated peptide cleavage fluorescence | calls only | 0.27% of 290,000 active | AID 2563;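 active = fall in fluorescence gain of 50% or more versus controls, with final raw signal at or below 3038400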;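 also: plate controls were neutral control wells for no effect and wells lacking membranes for full effect; tested at 10 µM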
PABP FP inh – PABP-poly(A) binding inhibition. 1% of 290,000 active. AID 2014. PABP-poly(A) RNA binding, fluorescence polarization. inhibition, % at 35 µM. P11940;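 active = 50% or more with normal probe brightness, or confirmed in later tests; about a fifth of its hits are not listed in these tables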;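 also: calls also rest on retests at 20 µM and on dose response follow-up; controls were probe without protein and protein plus probe with vehicle; some compounds called inactive have numbers as strong as hits; many hits fall short of the cut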
Target sequence (P11940 whole entry, looked up): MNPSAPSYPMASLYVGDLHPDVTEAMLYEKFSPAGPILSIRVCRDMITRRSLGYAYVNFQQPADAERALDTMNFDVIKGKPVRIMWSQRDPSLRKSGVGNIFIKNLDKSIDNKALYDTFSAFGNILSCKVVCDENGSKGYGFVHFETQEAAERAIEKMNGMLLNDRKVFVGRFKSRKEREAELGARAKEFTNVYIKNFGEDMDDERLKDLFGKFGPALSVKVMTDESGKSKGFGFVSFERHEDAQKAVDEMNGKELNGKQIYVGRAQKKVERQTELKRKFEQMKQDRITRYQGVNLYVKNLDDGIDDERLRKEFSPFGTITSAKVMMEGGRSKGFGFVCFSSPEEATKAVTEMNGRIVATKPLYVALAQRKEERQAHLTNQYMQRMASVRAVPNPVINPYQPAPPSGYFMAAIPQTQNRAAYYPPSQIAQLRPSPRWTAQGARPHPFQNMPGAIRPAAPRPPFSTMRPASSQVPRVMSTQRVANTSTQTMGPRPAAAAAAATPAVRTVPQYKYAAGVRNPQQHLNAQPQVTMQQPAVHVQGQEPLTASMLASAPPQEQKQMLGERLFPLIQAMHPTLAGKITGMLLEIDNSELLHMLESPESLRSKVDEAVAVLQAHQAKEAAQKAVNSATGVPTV
Env fusion inh – blocks HIV Env-driven cell-cell fusion. inhibition, % at 12.3 µM. 1.1% of 360,000 active. HeLa-JRFL Env/CEM21 cell fusion, luciferase. AID 651610;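 active = mean replicate inhibition score of at least 50 and every replicate individually at or above 50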;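 also: 0% = plate neutral controls and 100% = maraviroc near 300 nM; one replicate is shown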
eIF4H inh – inhibitors of RNA binding by human eIF4H; Q15056; eIF4H fluorescence polarization binding assay; inhibition, % at 35 µM; 0.94% of 290,000 active; AID 2012;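 active = 50% or more with normal probe brightness, or confirmed in later tests; about a fifth of its hits are not listed in these tables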;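 also: calls also rest on retests at 20 µM and on dose response follow-up; 0% = protein and probe with vehicle and 100% = probe without protein; strong numbers were not always called active; many hits fall short of the cut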
MT1-MMP act inh – inhibitors of human MT1-MMP activation; P50281; HT1080 RFP-PRO-GFP cells, GFP/RFP ratio fluorescence, overnight; percent of plate control window, DMSO zero; GFP/RFP ratio change, % at 20 µM; 0.061% of 360,000 active;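 active = GFP/RFP ratio change of at least 30% with cell ATP level not reduced by more than half and red fluorescence within 50% of control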; also: strong numbers were not always called active
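Compound: 20 µM single dose, 1% DMSO / System: HT1080 RFP-PRO-GFP cells / Controls: DMSO and RFP-L50D-GFP cell wells / Read-out basis: GFP/RFP fluorescence ratio / Schedule: overnight compound exposure at 37 °C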
CSC inhib – cancer stem cell inhibition. AID 2717. 1.1% of 300,000 active. inhibition, % at 7.5 µM. cancer stem cell-like cells viability, luminescence;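 active = mean at 75% or more and at least half the replicates too; tested in HMLE shEcad cells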;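 also: 0% = median of negative and 100% = median of positive control wells; the first replicate is given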
MT1-MMP act inh RFP – further read-out of MT1-MMP act inh, marked with its call; RFP signal change, %; measured here: RFP expression control read;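 0 = vehicle wells; hits needed this value within 50% of zero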
Active calls of the source: *; i = inactive; · = no result given; + = active, no number. Only part of the results is shown; rates above refer to the full screens.

SMILES	UUG fidelity	Rce1 inh	PABP FP inh	Env fusion inh	eIF4H inh	MT1-MMP act inh	MT1-MMP act inh RFP	CSC inhib
CCOC(=O)c1c(-c2ccccc2)oc2ccc(OCC(O)CNCCN(C)C)cc12 (configuration not stated)	-15	+	12	3	-6	-1	0	55
O=C(Nc1ccc(Cl)cc1)NC1CCCCNC1=O (configuration not stated)	-20	i	-1	1	-1	1	1	-8
CC(C)C(C)NC(=O)CSc1nnc(-c2c[nH]c3ccccc23)o1 (configuration not stated)	·	i	-4	-9	0	-7	-3	-10
Cc1ccc(-c2cc(N)n(-c3ccc(C)cc3)n2)cc1	-17	i	-5	·	-6	-1	2	-8
CCN(CC)CCNC(=O)Cn1nc(-c2ccc(C)cc2)ccc1=O	-20	i	-3	·	-6	3	1	13
O=C(COC(=O)CN=C1NS(=O)(=O)c2ccccc21)Nc1ccccc1OC(F)F	·	i	-7	-5	-4	-2	2	-10
CC1(O)N(Cc2ccccc2)C(=O)OC12CCCCC2 (configuration not stated)	-11	i	4	·	4	0	3	4
CCCCn1c(CN(C)Cc2ccccc2)nc2c1c(=O)n(C)c(=O)n2C	-14	i	12	72*	-2	-10	-20	-6
O=C(COC(=O)C1CCC(=O)N1)Nc1cc(Cl)ccc1Cl (configuration not stated)	·	i	-13	-1	-11	-1	-3	-13
CCc1cc(C(=O)NC(C)C2CCCO2)cs1 (configuration not stated)	-14	i	4	-2	-2	-3	4	-2
COCCCN1C(=O)c2ccc(C(=O)NCc3ccco3)cc2C1=O	3	i	3	·	-5	1	5	14
Cc1cccc(NC(=O)c2ccco2)c1C	-11	i	-4	9	2	3	1	·
Cc1ccc2cc(CCNC(=O)C(C)C)c(=O)[nH]c2c1C	2	i	-16	-38	-6	0	5	-8
COC(=O)c1ccc(-c2sc3nc(N4CCOCC4)c4c(c3c2N)CC(C)(C)OC4)o1	-15	i	3	-58	-4	-2	-3	3
COc1ccc(CCNC(=O)C(=O)NCC2OCCN2S(=O)(=O)c2ccc3c(c2)OCCO3)cc1 (configuration not stated)	-2	i	3	-6	19	3	-8	7
O=C(Cc1ccc(Br)cc1)Nc1ccccc1Sc1ccccc1	-1	·	3	·	-2	-12	-13	·
CC1(C)Cc2c(c(-c3ccco3)[nH]c(=O)c2C#N)CO1	-21	i	-5	·	34	-5	8	-10
O=C(CNC(=O)c1cccs1)NCCN1CCC(Cc2ccccc2)CC1	·	i	-9	2	-1	·	·	-24
O=C(NCC1CCCO1)c1ccc2c(=O)n(CC3CCCO3)c(=S)[nH]c2c1 (configuration not stated)	4	i	-16	12	-7	-3	-4	-20
OCC1OC(n2nnc3ccccc32)C(O)C(O)C1O (configuration not stated)	-20	i	-8	-37	-2	2	5	-10
COc1cc(NC(=O)c2ccccc2)c(C)cc1NC(=O)CC(CC(=O)O)c1ccccc1 (configuration not stated)	-18	i	-8	-3	-8	0	3	·
COc1ccc(NC(=O)O/N=C/c2ccc(Br)cc2)cc1	·	i	-18	0	2	6	4	18
CC1CN(C(=O)c2ccc(COCC(F)(F)F)o2)CC(C)O1 (configuration not stated)	-10	i	-7	1	-5	3	-3	-5
Cc1cccc(OC(=O)Cn2c(C(F)(F)F)nc3ccccc32)c1	-9	i	-6	·	-5	4	2	-5
C#Cc1ccc(CN2CCN(CCc3ccccc3)C(CCO)C2)cc1 (configuration not stated)	-1	i	-1	6	2	-1	-1	-6
Cc1[nH]c2ccccc2c1C(=O)COC(=O)c1ccc([N+](=O)[O-])s1	21	i	13	13	4	4	-3	-5
Cc1ccc(NC(=O)CSc2nnc(CNC(=O)c3cccs3)o2)c(C)c1	0	i	-4	2	8	1	0	·
CCOc1ccc(N2CC(C(=O)Nc3ccc(S(=O)(=O)Nc4nccs4)cc3)CC2=O)cc1 (configuration not stated)	-1	i	-5	-1	-6	0	5	-22
CCCc1c(C(=O)N/N=C/c2ccc(OCc3ccc(F)cc3)cc2)nnn1-c1nonc1N	-11	·	·	-1	·	-1	4	·
CS(=O)(=O)c1nc(-c2ccc(Br)cc2)n[nH]1	-13	i	-9	-11	1	2	6	-6
CCCN(CCC)CCCNC(=O)c1cc2c(=O)n(C)c3ccccc3c2n1C	-27	i	-5	-24	-2	5	6	16
CCOC(=O)c1c[nH][nH]c1=O	-7	i	3	-30	10	1	4	-9
COCc1cc(=O)n2[nH]c(C)c(-c3ccc(Cl)cc3)c2n1	-11	·	·	3	·	2	0	·
CC(=O)c1ccc(Nc2nc(C(C)N)cs2)cc1 (configuration not stated)	-10	·	·	-10	·	0	3	·
Cc1cccc(C(=O)NNC(=O)C23CC4CC(CC(C4)C2)C3)c1O	-15	i	4	-12	-7	3	5	-30
CC(=O)c1c(C)nc(-c2ccc(OCC(=O)Nc3ccc(F)cc3)cc2)n1O	-8	i	1	-5	-7	5	1	-12
Cc1c(N)cccc1N	-2	·	·	·	·	-1	6	-8
CCCc1nc(SCC(=O)Nc2nnc(SCC)s2)c2c(=O)n(C)c(=O)n(C)c2n1	-16	i	-1	12	0	-8	-20	31
Cc1cc(C)cc(N(CC(=O)NC2CCCC2)C(=O)CCC(=O)Nc2cc(C)on2)c1	-6	i	1	-2	5	-3	-1	·
C=CCn1c(SCC#N)nc2c(c1=O)C(C)(C)Cc1ccccc1-2	-14	i	-1	·	6	3	-5	65

Sorted by number of heavy atoms (falling): part of the list above
SMILES	UUG fidelity	Rce1 inh	PABP FP inh	Env fusion inh	eIF4H inh	MT1-MMP act inh	MT1-MMP act inh RFP	CSC inhib
CCCc1c(C(=O)N/N=C/c2ccc(OCc3ccc(F)cc3)cc2)nnn1-c1nonc1N	-11	·	·	-1	·	-1	4	·
COc1cc(NC(=O)c2ccccc2)c(C)cc1NC(=O)CC(CC(=O)O)c1ccccc1 (configuration not stated)	-18	i	-8	-3	-8	0	3	·
Cc1cc(C)cc(N(CC(=O)NC2CCCC2)C(=O)CCC(=O)Nc2cc(C)on2)c1	-6	i	1	-2	5	-3	-1	·
CCCc1nc(SCC(=O)Nc2nnc(SCC)s2)c2c(=O)n(C)c(=O)n(C)c2n1	-16	i	-1	12	0	-8	-20	31
CC(=O)c1c(C)nc(-c2ccc(OCC(=O)Nc3ccc(F)cc3)cc2)n1O	-8	i	1	-5	-7	5	1	-12
Cc1ccc(NC(=O)CSc2nnc(CNC(=O)c3cccs3)o2)c(C)c1	0	i	-4	2	8	1	0	·
C#Cc1ccc(CN2CCN(CCc3ccccc3)C(CCO)C2)cc1 (configuration not stated)	-1	i	-1	6	2	-1	-1	-6
Cc1cccc(OC(=O)Cn2c(C(F)(F)F)nc3ccccc32)c1	-9	i	-6	·	-5	4	2	-5
CC1CN(C(=O)c2ccc(COCC(F)(F)F)o2)CC(C)O1 (configuration not stated)	-10	i	-7	1	-5	3	-3	-5
COc1ccc(NC(=O)O/N=C/c2ccc(Br)cc2)cc1	·	i	-18	0	2	6	4	18
CC(=O)c1ccc(Nc2nc(C(C)N)cs2)cc1 (configuration not stated)	-10	·	·	-10	·	0	3	·
CS(=O)(=O)c1nc(-c2ccc(Br)cc2)n[nH]1	-13	i	-9	-11	1	2	6	-6
CCOC(=O)c1c[nH][nH]c1=O	-7	i	3	-30	10	1	4	-9
Cc1c(N)cccc1N	-2	·	·	·	·	-1	6	-8

An excerpt of these results, as comma-separated lines.
molecule,UUG fidelity,Rce1 inh,PABP FP inh,Env fusion inh,eIF4H inh,MT1-MMP act inh,MT1-MMP act inh RFP,CSC inhib
COCc1cc(=O)n2[nH]c(C)c(-c3ccc(Cl)cc3)c2n1,-11,·,·,3,·,2,0,·
CC(=O)c1ccc(Nc2nc(C(C)N)cs2)cc1 (configuration not stated),-10,·,·,-10,·,0,3,·

(list continues)
SMILES	UUG fidelity	Rce1 inh	PABP FP inh	Env fusion inh	eIF4H inh	MT1-MMP act inh	MT1-MMP act inh RFP	CSC inhib
C/C(CC(=O)C(F)(F)F)=N\NC(=O)/C(C#N)=C/N(C)C	-11	i	8	4	-4	-2	0	1
COc1ccc(NC(=O)CSc2nnc(Cc3cccn3C)n2-c2ccc(C)cc2)cc1OC	-12	i	3	-36	-5	-1	4	-10
Cc1ccc(S(=O)(=O)CC(O)COc2ccccc2C#N)cc1 (configuration not stated)	·	i	2	12	-3	-3	2	-15
NS(=O)(=O)c1ccc(CCNC(=O)c2cccc3ccccc23)cc1	-5	i	-11	-3	-14	0	1	-2
C/C(=N\NC(=O)c1ccc(Cl)c(S(=O)(=O)Nc2ccccc2Cl)c1)c1ccncc1	-19	i	3	·	7	4	0	29
COc1ccc(-c2nn(-c3ccccc3)cc2C2CC(c3cccs3)=NN2C(=O)CCCC(=O)O)cc1 (configuration not stated)	·	i	2	-17	1	12	3	-23
CC(=O)N1CCN(CCN(CC2C(C)C=C(C)CC2C)C(C)=O)CC1 (configuration not stated)	17	i	3	·	-1	-4	0	0
O=C(Nc1cc(=O)c2ccccc2o1)N1CCCCC1	-15	i	-5	-18	-4	0	2	-8
O=C(c1ccco1)c1nnn(Cc2ccccc2)c1-c1ccccc1	-12	i	-5	·	-4	-5	-4	78*
CC1CN(C(=O)N(C)C)CCN1C(=O)N(C)C (configuration not stated)	-12	i	1	·	-12	3	1	-8
COc1ccc(C(C(=O)NCC2CCCO2)N(Cc2cccs2)C(=O)c2snc(C(N)=O)c2N)cc1OC (configuration not stated)	2	i	7	3	-4	-2	-5	-9
CCOC(=O)c1cnc(SC)nc1Nc1cccc(F)c1	-10	i	0	-16	-6	-1	2	0
O=[N+]([O-])c1cnc(N2CCCCC2)c([N+](=O)[O-])c1	·	i	-3	·	11	-2	-3	-14
CC1Cc2ccccc2N1C(=O)CSc1nnc(CNc2ccccc2)o1 (configuration not stated)	·	i	-7	·	5	3	1	-3
O=C(Nc1cccc2ccccc12)N1CCN(Cc2ccc3c(c2)OCO3)CC1	14	i	0	·	5	4	2	-8
CCOc1ccccc1NC(=O)CSc1nnc(-c2ccco2)o1	-6	i	-5	·	-2	0	-2	12
Cc1ccc(S(=O)(=O)Nc2cccc3c2O[C@H](CN(C)C(=O)Nc2ccc(C(F)(F)F)cc2)[C@@H](C)CN([C@H](C)CO)C3=O)cc1	-2	·	·	-32	·	6	-1	4
O=C(NCc1ccccn1)C(=O)NCC1OCCCN1S(=O)(=O)c1cc(F)ccc1F (configuration not stated)	-49	i	2	-43	2	-1	3	0
COc1cc(C(=O)OCC(=O)Nc2cc(C)on2)ccc1OCc1ccccc1Cl	-13	i	6	-48	-9	-15	-10	9
CCN1C(=O)[C@H]2[C@@H](c3ccc(-c4ccc(OC)cc4)cc3)N3CCCC[C@@]3(C(=O)OC)[C@H]2C1=O	-12	i	·	36	·	-15	-19	21
Cc1ccc(C(=O)c2cc3c(cc2[N+](=O)[O-])OCCO3)cc1	-12	i	0	12	-7	2	-3	30
CCN(CC)CCn1c(=S)[nH]c2cc(C(=O)N3CC(C)CC(C)C3)ccc2c1=O (configuration not stated)	-4	i	-6	-4	-2	0	2	-13
S=C(Cc1cccnc1)N1CCOCC1	·	i	-6	·	3	11	7	-5
COc1cccc(C2C(C(=O)Nc3ccccc3)=C(C)N=c3s/c(=C/c4ccc(OCC(=O)O)cc4)c(=O)n32)c1 (configuration not stated)	·	i	-7	9	38	-1	1	1
